gsp antag – qHTS for Antagonists of gsp, the Etiologic Mutation Responsible for Fibrous Dysplasia/McCune-Albright Syndrome: qHTS; Potency, µM (highest dose often 76.9 µM), without a hit: top-dose activity change, negative = inhibition, hits mostly inhibitors; AID 624288, 2012; 0.4% of 340,000 active; gsp-mutant cells, cAMP HTRF, 30 min; control for the full effect not named in the record; active = falling curve of any shape with a large fitted effect; inconclusive = falling curve, mostly with a smaller effect; inactive = flat or rising curve; cell line not stated here;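 also: intracellular cAMP measured with PDE inhibitor Ro 20-1724 present during compound exposure; potency is read from the fitted curve at half-maximal effect; % is scaled to controls: 0 for no effect and ±100 for the full control effect; nearly all actives have a fitted effect of over 65% in size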
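HTRF cAMP measurement after 30 min RT detection following 30 min, 37C compound treatment alongside […] (added as 300 uM solution) in G418-selected cells seeded at 2000/well and grown 16–24 h.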
Sfp inh – qHTS Assay for Inhibitors of Bacillus subtilis Sfp phosphopantetheinyl transferase (PPTase); Biochemical Sfp PPTase activity, qHTS; Potency, µM, without a hit: max response, negative = inhibition, hits mostly inhibitors; AID 1490, 2009; 3.5% of 310,000 active; 4'-phosphopantetheinyl transferase ffp (Bacillus subtilis), Q9F4F7; active = well fitted inhibition curve with a large enough effect; inconclusive = small, poorly fitted or top-dose-only effect, or another doubt; inactive = no such curve, though single readings can be large or run the other way;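 also: the enzyme is Sfp with the accession as filed and its product quenches rhodamine fluorescence; potency is read from the fitted curve at half-maximal effect; 0% = enzyme reaction without inhibitor and -100% = no enzyme wells; top concentration of the series not given in the record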
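Step 1, compound plus 15 nM Sfp-PPTase, 15 min, room temperature. Step 2, add rhodamine-CoA (5 uM) and BHQ-2-YbbR (12.5 uM). Step 3, read 525/598 nm fluorescence at 0 and 30 min.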
Menin MLL FP FL – qHTS Assay for Inhibitors Targeting the Menin-MLL Interaction in MLL Related Leukemias: Competition With Fluorescein Labeled MLL-derived Peptide | AID 1766, 2009 | 290,000 tested, under 10 active | Fluorescence polarization, fluorescein-MLL peptide displacement from menin | FP activity change, % at 61.4 µM; inconclusive = falling polarisation curve, or a change in total fluorescence; inactive = total fluorescence flat and polarisation flat or rising; no compound was filed as active; the % refers to the polarisation; negative = inhibition;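 also: % of control where 0% means no effect; inhibitors lower the polarisation; unlabelled MLL peptide was the positive control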
ClpP mod – qHTS Assay for Activators of ClpP | ATP-dependent Clp protease proteolytic subunit (Bacillus subtilis (strain 168)), P80244 | purified B. subtilis ClpP, FRET peptide cleavage, 20 min | Potency, µM (top dose mostly 57.5 µM), inactives show at the highest dose activity change, negative = active | 1.9% of 340,000 active; active = well fitted falling curve with a large enough effect; inconclusive = small, poorly fitted or top-dose-only effect; inactive = no such curve, though single readings can be large or run the other way; also: potency is read from the fitted curve at half-maximal effect; the source files actives as falling curves though it sought activators and does not explain the sign; nearly all actives have a fitted effect of over 65% in size; many hits overshoot -100%
Target sequence (P80244 whole entry, looked up): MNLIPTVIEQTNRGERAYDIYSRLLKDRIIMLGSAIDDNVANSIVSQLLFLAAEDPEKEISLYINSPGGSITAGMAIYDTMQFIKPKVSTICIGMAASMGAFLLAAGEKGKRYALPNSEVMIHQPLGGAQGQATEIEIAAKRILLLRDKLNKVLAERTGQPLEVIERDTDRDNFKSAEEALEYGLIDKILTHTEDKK
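Purified B. subtilis ClpP, 10 microg/mL final in Tris/HCl pH8 with KCl, BSA, glycerol and Tween-20, cleaved an Abz/nitrotyrosine-quenched decapeptide. Fluorescence (ex 320, em 430) was read at 0 and 20 min at room temperature. Delta was normalized to 5.8 microM ADEP and DMSO/no-enzyme controls.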
TRPV1 potentiator – HTS Assay for Compounds that Act as Potentiators of the Vanilloid Receptor 1. Transient receptor potential cation channel subfamily V member 1 (Homo sapiens), Q8NER1. TRPV1-expressing cells, Fluo-8 calcium influx, capsaicin EC20 potentiation; host cell line not named in the record; control for the full effect not named in the record. potentiation, % at 8.33 µM. 0.02% of 320,000 active; active means potentiation above 80%; inconclusive means 30% to 80%; inactive means below 30%; also: 0% is about no effect
Target sequence (Q8NER1 whole entry, looked up): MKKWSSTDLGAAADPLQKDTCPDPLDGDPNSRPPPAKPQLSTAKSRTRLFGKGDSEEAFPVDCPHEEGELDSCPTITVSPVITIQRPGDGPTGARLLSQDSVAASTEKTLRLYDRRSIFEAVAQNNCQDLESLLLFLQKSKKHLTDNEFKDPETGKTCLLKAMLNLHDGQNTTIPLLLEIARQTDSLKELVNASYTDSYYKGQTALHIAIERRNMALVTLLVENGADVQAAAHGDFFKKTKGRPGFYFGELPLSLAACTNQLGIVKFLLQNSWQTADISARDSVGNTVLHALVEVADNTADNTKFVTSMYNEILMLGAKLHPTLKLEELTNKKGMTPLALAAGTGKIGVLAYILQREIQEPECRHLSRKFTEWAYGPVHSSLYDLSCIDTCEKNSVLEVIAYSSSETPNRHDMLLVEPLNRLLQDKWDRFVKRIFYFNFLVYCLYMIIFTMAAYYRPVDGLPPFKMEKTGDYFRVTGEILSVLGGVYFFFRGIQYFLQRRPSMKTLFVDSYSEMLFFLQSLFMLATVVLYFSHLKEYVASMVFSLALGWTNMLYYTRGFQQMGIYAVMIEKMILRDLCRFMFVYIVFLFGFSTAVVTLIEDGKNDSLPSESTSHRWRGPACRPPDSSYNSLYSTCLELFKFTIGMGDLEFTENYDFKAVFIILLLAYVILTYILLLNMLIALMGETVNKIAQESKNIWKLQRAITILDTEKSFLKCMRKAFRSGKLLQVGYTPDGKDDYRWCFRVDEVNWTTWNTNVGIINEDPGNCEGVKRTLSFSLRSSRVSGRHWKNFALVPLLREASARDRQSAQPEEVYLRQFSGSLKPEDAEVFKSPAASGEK
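Fluo-8 calcium influx in TRPV1-expressing cells, kinetic read (ex 480/em 520 nm). Compound added and read 3 min for agonist activity, followed by capsaicin at EC20 final and 2 min further read for enhancement.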
D2 PAM – Beta-Arrestin HTS for Positive Allosteric Modulators of the Human D2 Dopamine Receptor: Potentiators. D(2) dopamine receptor (Homo sapiens), P14416. DiscoveRx D2 beta-arrestin cells, luminescence, 90 min; 100% = 57 uM dopamine signal. potentiation, % (no concentration beside the values). 0.23% of 360,000 active. AID 624464, 2012; active = potentiation of 50% or more; inconclusive = 30% to 50%; inactive = 30% or less;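 also: compound concentration not given in the record; tested on top of an EC20 dose of dopamine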
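PathHunter D2 cells, attached overnight at 37 deg C, received compound in DMSO plus dopamine at EC20 (50 nM final) for 90 min at 37 deg C. Beta-arrestin recruitment was read as luminescence after 1 h with detection reagent at ambient temperature.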
gsp ag – qHTS for Agonist of gsp, the Etiologic Mutation Responsible for Fibrous Dysplasia/McCune-Albright Syndrome: qHTS | gsp mutant cells, cAMP HTRF, 30 min; control for the full effect not named in the record | Potency, µM (doses to about 76.9 µM), inactives show at the highest dose activation (cAMP increase), most hits filed as activators | 0.13% of 340,000 active | AID 624287, 2012; active = well fitted activation curve with a large enough effect; inconclusive = small, poorly fitted or top-dose-only effect, or another doubt; inactive = no such curve, though single readings can be large or run the other way; cell line not stated here;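 also: phosphodiesterase inhibitor Ro 20-1724 added with compounds to block cAMP breakdown; potency is read from the fitted curve at half-maximal effect; nearly all actives have a fitted effect of over 60% in size; about a fifth of the inactives were tested at one dose only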
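Cells in DMEM/10% FBS with G418 were pretreated with compounds in DMSO plus […] (300 uM stock) for 30 min at 37C. cAMP was measured by HTRF (cAMP-d2 plus anti-cAMP antibody-K) after 30 min at room temperature.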
The depositor's hits bear a star; ? = inconclusive; / = not tested or not shown; & = joins results of further samples; [ ] = remark or other dose.

SMILES	gsp antag	Sfp inh	Menin MLL FP FL	ClpP mod	TRPV1 potentiator	D2 PAM	gsp ag
COc1ccc(/C=N/Nc2nnc(Cc3ccccc3)c(=O)[nH]2)cc1	2.1%	-1.3%	0.8	/	/	-0.1	-6.2%[15.4 µM]
Cc1cc(NC(=O)CSc2nc(N)c(NC(=O)c3ccccc3F)c(=O)[nH]2)no1	4.3%	-12.7%	/	15.8µM*	-4.1	-15.4	1.6%[15.4 µM]
C/C(Nc1ccc(C)cc1)=C(/C#N)C(N)=O	7.0%	1.2%	4.0	0.3%	10.1	-4.3	11.7%
CCCCc1c(O)nc(SC2CC(=O)N(c3ccc(C(=O)OCC)cc3)C2=O)[nH]c1=O (stereo not given)	-10.3%	-0.2%	-1.7	-5.8%	-0.8	-31.2	-12.6%
Cc1ccc(C)c(N2CCN(C(=O)c3ccc(CSc4nc5ccncc5[nH]4)cc3)CC2)c1	?	-1.8%	1.8	0.6%	19.7	-3.5	-64.6%[inhibitor]
COc1ccc(/C=C/C=C2\N=C(SC)SC2=O)cc1	-1.5%	44.7µM*	?	0.9%	-4.0	-11.7	-21.8%
COc1cccc(OCC(=O)NNC(=O)CCc2ccccc2)c1	11.6%	9.2%	0.0	/	-11.2	-6.1	0.8%
CC[C@H](C)[C@@H](C(=O)N1CCNCC1)n1cc([C@@H](N)CO)nn1	5.2%	3.5%	-9.7	0.6%	-10.3	-4.7	/
Cc1cc(O)c2c(-c3ccccc3)cc(=O)oc2c1	1.4%	7.7%	1.0	-0.4%	3.1	-10.7	-13.3%
CN(N)C(=S)Nc1ccc(Cl)cc1	1.8%	-9.6%	-2.4	0.6%	8.2	2.0	0.7%[15.4 µM]
Cc1nc2ccccc2c2oc(C(=O)NCCCN3CC(C)CC(C)C3)cc12 (stereo not given)	12.5%	12.5%	-2.3	3.6%	-3.3	-31.2	?
CCCc1cc2c(cc1NS(=O)(=O)c1ccc(CCNC(C)=O)cc1)OCO2	2.7%	4.4%	0.8	-0.6%	1.3	-13.6	-16.8%
Nc1ccc(C(=O)N2CCN(S(=O)(=O)c3ccc(Cl)cc3)CC2)cc1[N+](=O)[O-]	-5.0%	/	/	-11.3%	3.6	2.2	-58.9%
CC(=O)Nc1ccc(NC(=O)C(C)OC(=O)CCSc2ccccc2Cl)cc1 (stereo not given)	4.8%	/	/	-2.9%	/	-15.4	-32.8%[inhibitor]
NC1=NC(=O)CC(C(=O)NCCc2ccccc2)S1 (stereo not given)	-10.0%	16.6%	0.4	?	10.6	-4.4	3.8%[15.4 µM]
COC(=O)CC1C(=O)NCCN1C(=O)NC1CCCCC1 (stereo not given)	6.4%	-0.8%	0.6	1.9%	21.0	-9.1	?
Cc1ccc(OCCN2CCCC2)cc1	-3.2%	3.5%	-0.3	-1.2%	-0.2	-5.9	0.7%
O=S(=O)(NCc1ccc2c(c1)OCO2)c1ccc(F)cc1	5.1%	0.1%	-0.4	-1.5%	3.5	4.8	-17.0%[15.4 µM]
COc1ccc(C(C)(C)NC(=O)C2CCC(=O)N(C3CC3)C2)cc1OC (stereo not given)	14.8%	1.8%	/	1.2%	5.7	-3.3	0.8%
COc1ccc(OC)c(NC(=O)c2cccc3c2C(=O)N(C2CCCCC2)C3)c1	-2.2%	0.8%	-0.3	-1.8%&1.4%	-5.6	-5.2	10.8%
O=C(C[C@H]1C(=O)N(c2ccc(Br)cc2)C[C@@H]1Cc1ccccc1)Nc1ccccc1	/	/	/	1.3%	/	1.1	-52.8%[inhibitor]
COC(=O)c1cccc(N2C(=O)C3C4C=CC(CC4)C3C2=O)c1 (stereo not given)	0.4%	11.5%	0.5	0.3%	-1.8	-6.9	4.3%
Cc1cccc(CN2C(=O)c3ccccc3Sc3ccc(C(=O)NCCN4CCOCC4)cc32)c1	-26.7%	-11.6%	-0.5	?	-4.4	-11.9	27.7%[15.4 µM]
O=C(CSC1=NCCS1)N1N=C(c2cccs2)CC1c1ccc(F)cc1 (stereo not given)	/	/	/	4.5%	/	-11.0	?
O=C(CCCn1c(=S)[nH]c2ccccc2c1=O)NC1CCCCC1	7.6%	14.6%	0.2	0.3%	7.2	-25.0	20.7%
CCC(C)c1ccc(NC(=S)Nc2ccc(OC)cc2)cc1 (stereo not given)	-2.6%	9.0%	-1.1	0.7%	-6.4	-12.4	-0.1%[15.4 µM]
O=C(NCCCN1CCOCC1)c1cccc(S(=O)(=O)N2CCN(c3ccccc3)CC2)c1	-6.0%	/	/	1.2%	14.0	-22.9	17.6%
Cc1nc(NC(=O)c2ccc(Br)o2)ccc1Br	4.6%	2.9%	1.7	-2.6%	-17.2	-31.6	32.2%
NS(=O)(=O)c1cccc(NC(=O)c2ccc(S(=O)(=O)N3CCCCCC3)cc2)c1	2.8%	/	/	2.2%	/	17.3	-9.5%[15.4 µM]
Cc1cc(NCCCN)nc(-c2ccccc2O)n1	-3.8%	3.4%	-0.7	-13.4%	1.1	-14.3	-9.7%
CCOC(=O)c1c(NC(=O)CSc2nnc(C)s2)sc2c1CCCCC2	-14.0%	-10.7%	4.2	-1.8%	-36.5	-3.2	-37.3%
CC(=O)c1cccc(NC(=O)CN2C(=O)NC(C)(C)C2=O)c1	10.3%	/	/	3.8%	/	-25.1	-1.1%[15.4 µM]
O=C1C2C3C=CC(CC3)C2C(=O)N1c1ccccc1F (stereo not given)	12.4%	-2.7%	-5.5	/	2.7	-1.7	6.6%
COc1cccc(C(=O)Nc2c3c(nn2-c2ccccc2C)CS(=O)C3)c1OC (stereo not given)	-7.4%	1.6%	7.8	-6.0%	1.8	-13.0	1.2%
CC(C)(C)OC(=O)N1Cc2ccccc2C[C@H]1C(=O)O	11.6%	9.6%	0.2	-1.5%	-3.3	-21.1	14.3%
COc1ccccc1N1C(=O)c2ccccc2NC1C(OC)OC (stereo not given)	9.0%	-5.7%	-5.2	22.4µM*	25.3	-6.9	9.3%
O=C(NCc1ccco1)C1CCCN1C(=O)Nc1ccccc1 (stereo not given)	10.2%	7.9%	-1.1	-1.3%	5.5	-13.4	8.8%
CCN(CC(=O)Nc1cccc(S(=O)(=O)N(C)c2ccccc2)c1)Cc1cccs1	-16.2%	/	/	-2.1%	-14.7	-8.9	-37.5%[inhibitor]
C[C@H]1CN([C@@H](C)CO)C(=O)Cc2cc(NC(=O)C3CC3)ccc2O[C@H]1CN(C)Cc1ccc(Oc2ccccc2)cc1	?	/	/	-2.1%	/	-4.7	-22.0%
O=C(NC(=S)Nc1ccc2oc(-c3cccnc3)nc2c1)c1cccc(Cl)c1	0.4%	-13.8%	-7.7	-4.8%	1.4	-13.6	0.0%
COc1ccc(NC(=O)C2CCCN(c3ncccn3)C2)cc1 (stereo not given)	-20.1%	2.9%	3.1	/	-23.3	-3.8	-2.4%
Cc1ccc(OCC(=O)N2CCN(c3nnc(-c4ccc(C)cc4)c4ccccc34)CC2)cc1	35.5µM*	-5.4%	10.3	0.6%	-8.3	0.5	1.2%
NC(=S)c1ccc(OCCCc2ccccc2)cc1	/	/	/	-0.8%	/	-29.0	8.1%
O=C(CC(=O)NN=C1CCCC1)NCCc1ccccc1	9.0%	9.1%	-0.5	-2.6%	13.5	-1.4	-1.6%
O=C(CNc1cc(S(=O)(=O)N2CCOCC2)ccc1NCC1CCCO1)Nc1cccc(F)c1 (stereo not given)	-5.8%	-5.6%	/	-5.8%	-9.6	-30.9	4.1%[15.4 µM]
Cc1nc(-c2cccs2)sc1C(=O)O	-26.5%	6.6%	3.6	3.2%	-1.0	-6.7	7.5%
O=C(N[C@H]1C/C=C\C[C@H](CC(=O)N(CCO)Cc2ccccc2)C(=O)N[C@@H](c2ccccc2)COC1=O)OCC1c2ccccc2-c2ccccc21	-4.5%	/	/	-7.6%	/	-14.3	?
O=C(O)CCN1C(=O)S/C(=C\c2cccnc2)C1=O	0.3%	10.5%	-3.9	/	-13.2	-8.9	-13.7%[15.4 µM]
CCOC(=O)N1CCN(C(=O)CN(c2ccc(OC)c(OC)c2)S(C)(=O)=O)CC1	-4.4%	5.1%	1.5	-4.9%	-6.2	6.2	15.9%
O=C(CCN1CCN(c2ccccc2F)CC1)Nc1ccccc1Cl	-17.3%	-7.3%	-5.5	-3.2%	-15.2	-10.4	24.4%[15.4 µM]
COc1ccc(-c2csc3ncnc(N4CCN(S(=O)(=O)c5cccc(C(F)(F)F)c5)CC4)c23)cc1	2.4%	/	/	-3.6%	-14.3	1.7	6.5%
CCc1sc(C(=O)Nc2cccnc2)cc1Br	2.7%	5.6%	/	0.9%	6.9	-5.7	-3.4%
O=C(Cc1ccccc1)Nc1cc(C(=O)c2ccccc2)ccc1N1CCOCC1	-15.1%	4.6%	1.2	-1.3%	-5.8	-8.5	-7.6%
CC(=O)Nc1ccc(S(=O)(=O)N2CCC(C(=O)NCCC(=O)NCc3ccncc3)CC2)cc1	18.2%	4.4%	/	0.3%	0.6	-11.4	-8.8%
O=C(C1CCN(S(=O)(=O)c2ccccc2)CC1)N1CCOCC1	9.2%	7.2%	3.9	-1.0%	6.0	-13.7	-1.8%
CCN(CC)CCSc1nc(O)c(-c2ccccc2)c(=O)n1-c1ccccc1	5.0%	16.0%	-2.2	40.5%	4.3	-2.8	18.2%[15.4 µM]
COc1ccc(NC(=O)CSc2nnc(-c3ccccc3F)n2C2CC2)cc1S(N)(=O)=O	17.2%	-13.3%	4.0	-2.4%	5.1	0.8	-1.0%[15.4 µM]
COc1ccc(C(CNC(=O)Cc2ccccc2Cl)N2CCCCC2)cc1 (stereo not given)	-14.6%	16.5%	4.7	0.1%	7.6	-36.3	-44.1%[inhibitor]
COc1ccc2[nH]c3c(=O)n(CCCC(=O)NC4CCC(C)CC4)c(=S)[nH]c3c2c1 (stereo not given)	-6.4%	7.7%	/	11.8%	1.2	-4.7	1.1%
